# Screening data (PubChem BioAssay)
# Vero = Vero cell cytotoxicity, dose response, cytotoxicity control for Vif-APOBEC3G degradation inhibitor project, Vero cells (AID 1117358) | 2,300 tested, 7% active | viability, % at the top dose, mostly 40 µM; hits show CC50 in µM | Vero viability, CellTiter-Glo ATP luminescence, 72 h; reference of the scale not given here;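 active = viability down to 80% or less at some dose; inactive = above 80% at all doses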
# * marks the source's active call; other numbers are inactive results. An excerpt. The share of hits here may be higher or lower than overall.
SMILES,Vero
COCCCN1C(=O)C(O)=C(C(C)=O)C1c1ccccn1 (stereo not given),105.0%
Nc1nc(-c2ccco2)c(-c2ccco2)s1,98.4%
CCn1ncc(/C=C/C(=O)NCc2cn(C)nc2C)c1C,107.4%
Cc1nc2ccccn2c1/C(O)=C1\C(=O)C(=O)N(CCCn2ccnc2)C1c1ccncc1 (stereo not given),97.9%
CSCC[C@H](NC(=O)NCc1ccccc1F)C(=O)O,97.4%
C=CCOc1ccc(Br)cc1/C=N/O,2.72µM*
COCC(C)NC(=O)C1CC(c2cccc(Br)c2)=NO1 (stereo not given),92.4%
Cc1ccc(N2CCN(c3ccc(C)cc3)C2c2ccccn2)cc1,97.8%
CC(OC(=O)c1cccs1)C(=O)NCc1ccco1 (stereo not given),99.0%
COc1ccc(Br)cc1C1CC(=O)N2CN(Cc3ccccc3)CSC2=C1C#N (stereo not given),95.9%
O=C(Nc1ccc(F)cc1)C(c1ccccc1)N1CCN(S(=O)(=O)c2ccc3ccccc3c2)CC1 (stereo not given),96.8%
O=C(Nc1cnccn1)c1csc2ccccc12,101.5%
CC1=CC(C)(C)Nc2ccc(OC(=O)c3cccnc3)cc21,34.4µM*
CC1(C)C/C(=C(/C#N)C(N)=O)CCO1,100.7%
CCc1c(C)sc(NC(=O)c2cc(-c3ccco3)on2)c1C#N,104.8%
COc1ccccc1N1CCN(CCc2n[nH]c(=S)n2-c2ccccc2)CC1,96.0%
Cc1cc(C)cc(-c2nnc(SCC(=O)NCc3cccs3)o2)c1,87.1%
NC(=O)COC(=O)c1ccc(Oc2ccccc2)cc1,95.2%
CCOc1ccc(N(CC(=O)NC(C)(C)C)S(=O)(=O)c2c(C)noc2C)cc1,96.2%
CCn1c(=O)c(C(=O)NCc2ccccn2)c(O)c2ccccc21,97.1%
c1ccc(CSc2nnc(-c3ccco3)c(-c3ccco3)n2)cc1,103.5%
COc1cc(C(O)P(=O)(OCC(C)C)OCC(C)C)cc(OC)c1OC (stereo not given),95.3%
O=C(CS(=O)(=O)c1cn(Cc2ccc(F)cc2)c2ccccc12)N1CCCCC1,95.6%
NC(=O)c1cc(N)ccc1N1CCCC1,101.0%
CCC(=O)Nc1cccc(Oc2nc(C)cc(C)c2C#N)c1,96.0%
CCC(=Nc1ccc(N)cc1)C1=C(O)C(C(=O)OC)C(C)(C)CC1=O (stereo not given),98.7%
O=S1(=O)Nc2c(ccc3cccnc23)-c2ccccc21,13.8µM*
COc1cccc(CNC(=O)Cn2c(=O)oc3ccccc32)c1OC,106.2%
Cc1cccc(S(=O)(=O)c2c(N)n(/N=C/c3ccco3)c3nc4ccccc4nc23)c1,>40µM*
CCOC(=O)Cn1c(=O)oc2cc(S(=O)(=O)NC3CCCc4ccccc43)ccc21 (stereo not given),88.6%
CC(C)OC(=O)CSc1nnc(-c2ccccn2)n1-c1ccccc1,98.9%
O=[N+]([O-])c1ccc(NCCCNS(=O)(=O)c2ccc(Cl)cc2)c(Cl)c1,>40µM*
Cc1ccc2[nH]c(=O)c(CN(Cc3cccs3)Cc3nnnn3Cc3ccccc3)cc2c1,106.9%
Cc1nnc(SCCCn2c(N3CCN(c4ccccc4)CC3)nc3c2c(=O)[nH]c(=O)n3C)s1,100.4%
Cc1ccc(C(=O)CSc2ccccn2)cc1,98.2%
CCCCc1c(C)nc2ccc(Br)cc2c1SCCC#N,16.3µM*
COc1cccc(C2C(C#N)=C(N)OC3=C2C(=O)CC(c2ccco2)C3)c1OCc1ccc(F)cc1 (stereo not given),97.7%
O=C(NNC(=O)c1cc(OCC(F)(F)F)ccc1OCC(F)(F)F)c1cccc(C(F)(F)F)c1,>40µM*
CC(=O)C1=C(N2CCCCC2)CCC1=O,103.2%
O=C(Cn1c(/C=C/c2ccccc2)nc2ccccc21)Nc1ccc(F)cc1,84.7%
CCc1ccc(-n2c(SCc3c(C)noc3C)nnc2-c2ccncc2)cc1,89.4%
Cc1cccc(N2CCN(CC(=O)NCC3CCCCC3)CC2)c1C,106.9%
CCOC(=O)C1CCCN(C(=O)c2ccc(CS(=O)(=O)c3ccc(Br)cc3)o2)C1 (stereo not given),96.2%
N#CC1=C(N)OC2=C(CCC/C2=C/c2ccoc2)C1c1ccoc1 (stereo not given),104.8%
CCOC(=O)C1=C(Cn2cnc3ccccc32)NC(=O)NC1c1ccc(OC)cc1 (stereo not given),106.8%
O=C(CCC(=O)N1CCN(S(=O)(=O)c2ccccc2)CC1)NC1CCCc2ccccc21 (stereo not given),100.1%
CCn1c(CNc2ccc(C)cc2)nnc1SCC(=O)NCc1ccccc1,100.5%
COC(=O)C(O)(CC(=O)c1ccc(OC)cc1)C(F)(F)F (stereo not given),88.6%
CC(=O)c1ccc(N2CCN(C(=O)C3CCC3)CC2)cc1,96.5%
Cc1nn(Cc2ccccc2)c(C)c1NC(=O)Cn1nc([N+](=O)[O-])c(Cl)c1C,101.3%
CCCCn1c(C)nc2c(=O)n(C)c(=O)[nH]c21,93.8%
O=c1nc(N2CCOCC2)nc2n1CCO2,96.1%
COc1ccc(C2OC(=O)CC2C(=O)N2CCN(c3cc(Cl)ccc3C)CC2)cc1OC (stereo not given),96.0%
O=C1CC(c2ccco2)CC(O)=C1C=Nc1ccc(Br)cc1 (stereo not given),95.1%
Cc1ccc(C)c(S(=O)(=O)Nc2ccccc2C(=O)Nc2ccccc2N2CCOCC2)c1,>40µM*
CCc1ccc(-c2cc(C(=O)Nc3ccc(S(=O)(=O)NC(C)=O)cc3)c3ccccc3n2)cc1,88.9%
CCCC1(C(=O)O)NC(c2ccc(OC)cc2O)C2C(=O)N(c3ccc(OC)cc3)C(=O)C21 (stereo not given),94.9%
S=C(Nc1ccc(Oc2ccccc2)cc1)NC1CCCCC1,30.1µM*
Cc1cc(C)cc(NCc2cc3c(cc2[N+](=O)[O-])OCO3)c1,85.9%
O=C(Oc1ccccc1)c1cccc2cccnc12,82.5%

# Among those listed so far, these have a nitro group on carbon:
SMILES,Vero
O=[N+]([O-])c1ccc(NCCCNS(=O)(=O)c2ccc(Cl)cc2)c(Cl)c1,>40µM*
Cc1nn(Cc2ccccc2)c(C)c1NC(=O)Cn1nc([N+](=O)[O-])c(Cl)c1C,101.3%
Cc1cc(C)cc(NCc2cc3c(cc2[N+](=O)[O-])OCO3)c1,85.9%

# Remaining list, next part:
SMILES,Vero
CN1CCN(S(=O)(=O)c2ccc(NC(=S)NC(=O)c3ccc(Cl)cc3)cc2)CC1,89.5%
Cc1cc(C(=O)Nc2c(C)cccc2C)n(-c2ccccc2)n1,106.2%
Cc1ccc(C(=O)Nc2nc(=O)n(C(=O)c3ccccc3C)s2)cc1,93.9%
COc1ccc(OC)c(NC(=O)CSc2nnc(C)n2Cc2ccccc2)c1,94.7%
CCS(=O)(=O)N1CCN(C(=O)CC(C)C)CC1,96.0%
CCOc1cc(C2NC(=O)NC(C)=C2C(=O)NCc2ccccc2)c(Cl)cc1O (stereo not given),101.3%
CC1CCCCN1Cc1ccc(N(C)C)cc1 (stereo not given),92.0%
COCCn1c(N2CCN(c3ccc(OC)cc3)CC2)nc2c1c(=O)[nH]c(=O)n2C,96.3%
CCOC(=O)Nc1nnc(-c2ccccc2OC)s1,90.3%
O=C(Nc1cc(Cl)ccn1)C1CCN(S(=O)(=O)c2cccs2)CC1,99.9%
Oc1ccccc1/C=N/Nc1nccnc1Cl,8.61µM*
Cc1cc(C)cc(NC(=O)CN2CCC(NC(=O)Cc3ccccc3)CC2)c1,100.7%
CC1=C(C(=O)N2CCCCC2)C2(CCC(C)CC2)OC1=O (stereo not given),95.3%
CCCCn1cnc2c1c(=O)n(C)c(=O)n2C,96.2%
COc1ccc(NC2CS(=O)(=O)CC2NCc2ccco2)cc1 (stereo not given),101.6%

# Part of the list above, with each value named:
> CCOc1cc(C2NC(=O)NC(C)=C2C(=O)NCc2ccccc2)c(Cl)cc1O (stereo not given)
  Vero: 101.3%

> CC1CCCCN1Cc1ccc(N(C)C)cc1 (stereo not given)
  Vero: 92.0%

> COCCn1c(N2CCN(c3ccc(OC)cc3)CC2)nc2c1c(=O)[nH]c(=O)n2C
  Vero: 96.3%

> CCOC(=O)Nc1nnc(-c2ccccc2OC)s1
  Vero: 90.3%

# Next records.
SMILES,Vero
CC1CCN(c2nc3ccc(C(=O)N4CCN(Cc5ccccc5)CC4)cc3s2)CC1,99.0%
CCOc1ccc(NC(=O)C(C)SC(N)=O)cc1 (stereo not given),94.7%
Cc1ccc(S(=O)(=O)C2(C(=O)Nc3cccc(F)c3)CC2)cc1,98.1%
Cc1cc(-n2ccnc2)n2c(nc3ccccc32)c1C#N,94.9%
O=C1C2C3CC(C(Br)C3Br)C2C(=O)N1c1ccccn1 (stereo not given),94.2%
CCOC(=O)c1cnn2c(N)c(C#N)nnc12,99.5%
COCCNC(=O)c1ccc(CS(=O)(=O)c2c(Cl)cccc2Cl)o1,99.3%
O=C1NC(=S)SC1=C1CCCC1,93.6%
COCC(=O)NCc1nc2ccccc2[nH]1,91.6%
Cn1c(SCC(=O)NC(c2ccccc2)c2ccccc2)nnc1-c1cccs1,111.5%
CCOC(=O)C1CCN(C(=O)c2ccc(OC)cc2OC)CC1,106.2%
C=CCNC(=O)c1cc(=O)c2ccccc2o1,95.8%
CCOc1cccc(-c2cc(=O)[nH][nH]2)c1,95.5%
N#Cc1c(NC(=O)CSc2ncnc3sccc23)oc(-c2ccco2)c1-c1ccco1,91.9%
CCOC(=O)c1c(NC(=O)c2cccs2)sc(C)c1C,97.2%
Cc1occc1-c1nnc(SCC(=O)N2CCN(c3ccccc3)CC2)n1C,86.9%
CCOC(=O)N1CCN(C(=O)c2ccc3c(SCC(=O)O)c4c(nc3c2)CCC4)CC1,96.0%
CC(C)c1nc2ccccc2n1CCC(=O)O,95.7%
O=C(NCc1ccccn1)c1ccc(Cn2cc(Br)cn2)o1,98.8%
CCCn1nc2cc(C(=O)NCc3ccc4c(c3)OCO4)ccc2c1OCC,98.5%
CC1(C)Cc2ccccc2C(/C(=N/O)C(N)=O)=N1,91.7%
CCC1S/C(=C(\C#N)C(=O)NCc2ccco2)N(c2ccc(F)cc2)C1=O (stereo not given),104.5%
NC(=O)c1ccc(-n2nnnc2SCC(=O)Nc2ccccc2-c2ccccc2)cc1,95.1%
Clc1ccc(-c2ccc(SCc3ccccn3)nn2)cc1,103.3%
Cc1nnc(NCCc2ccccc2)n(N)c1=O,102.7%
O=C(O)c1ccc(-n2nc(C(F)(F)F)c3c2-c2ccoc2CC3)cc1,95.2%
CCOc1c(OC)cccc1C1CC(=O)Nc2cc3c(cc21)OCCO3 (stereo not given),>40µM*
CCCNC(=S)NC1CCCC1,96.3%
c1ccc(N2CCN(c3ccc4nncn4n3)CC2)nc1,93.4%
CC1(C)Oc2ccc(C(=O)NC3CCCC3)cc2N(CC(=O)NC2CCCC2)C1=O,99.9%
O=C(COC(=O)Cc1cccc(C(F)(F)F)c1)NCC1CCCO1 (stereo not given),103.0%
Clc1ccc(Sc2cc(N3CCOCC3)nc(-c3ccccc3)n2)cc1,100.9%
FC(F)(F)c1cc(-c2ccco2)nc(NCc2cccnc2)n1,95.3%
Cc1c(C(=O)O)oc2ccc(S(=O)(=O)N3CCC(C)CC3)cc12,90.0%
O=C(CSc1nnc(CNC(=O)c2ccccc2F)o1)c1ccccc1,99.4%
O=C(O)Cn1c(SC2CCCCC2)nc2ccccc21,101.6%
CC1Cc2ccccc2N1Cc1cc(=O)n2ccsc2n1 (stereo not given),108.2%
COc1ccc(C(=O)NCc2cn3cccc(C)c3n2)cc1OC,98.0%
O=[n+]1c2c(n([O-])c3cc(Cl)ccc31)CCCC2,91.4%
CC(NC(=O)c1cccs1)C(c1cccs1)N1CCN(Cc2ccccc2)CC1 (stereo not given),103.4%
CCN(CC)c1ccc(/C=N/n2c(C)cc(C)cc2=O)cc1,92.2%
Cn1nc(-c2ccc(Cl)cc2)c2cc(C(=O)NCCCN3CCOCC3)sc21,>40µM*
Cc1ccccc1NC(=O)CSc1nnc(-c2ccco2)c(-c2ccco2)n1,90.5%
CC(C)Cn1c2c(c(O)c(C(=O)Nc3nccs3)c1=O)CCCC2,93.1%
COc1cc(C2Nc3ccccc3C(=O)N2c2ccccc2)ccc1O (stereo not given),95.2%

# Looked up above:
# In Vero, `O=C(COC(=O)Cc1cccc(C(F)(F)F)c1)NCC1CCCO1` (stereo not given) shows 103.0%
# In Vero, `O=C(CSc1nnc(CNC(=O)c2ccccc2F)o1)c1ccccc1` shows 99.4%
# In Vero, `CC1Cc2ccccc2N1Cc1cc(=O)n2ccsc2n1` (stereo not given) shows 108.2%

# Going on with the list:
SMILES,Vero
O=C(CN1C(=O)NC2(CCCCC2)C1=O)NCCC1=CCCCC1,100.7%
Cc1cccc(OCCCC(=O)NC(C)c2ccccc2)c1 (stereo not given),96.5%
CCOC(=O)c1cc(-c2ccccc2)n(CC(=O)O)c1C,89.2%
Cc1ccccc1-c1nc(CN2CCC(C(=O)N3CCN(c4ccccn4)CC3)CC2)c(C)o1,94.5%
Cc1c(C(=O)N2CCN(c3ccccc3F)CC2)sc2nc(-c3ccccc3)cn12,96.5%
O=C1COc2ccc(C(=O)NCc3ccco3)cc2N1,93.6%
OC(CN1CCN(c2ccccc2)CC1)c1ccc2c(c1)CCN2 (stereo not given),105.6%
COc1cc2c(cc1OC)C(C)N(C(=O)c1cc3n(n1)C(C(F)(F)F)CC(c1ccco1)N3)CC2 (stereo not given),97.3%
Cc1nccn1CC(=O)N/N=C/c1ccc(O)c(O)c1,89.7%
CSc1nc(NCCOCCO)c2sc3nc(-c4ccco4)c4c(c3c2n1)CCC4,97.6%
O=C(CCCCn1c(=O)[nH]c2ccsc2c1=O)NCc1cccnc1,96.2%
COc1ccc(OC)c(Nc2nc(-c3ccc(O)c(O)c3)cs2)c1,89.5%
COC(=O)C1C2CCC(C2)C1C(=O)OCC(=O)c1ccc(C)cc1 (stereo not given),97.1%
CCN(CC)C(=O)Cn1cnc2sc(C(=O)Nc3cc(OC)c(OC)c(OC)c3)c(C)c2c1=O,101.3%
O=C(NC1CCC(C(=O)O)CC1)OCc1ccccc1 (stereo not given),104.9%
CC1(C)CC(=O)C2=C(C1)N(Cc1cccnc1)C(=O)C2(NC(=O)C1CC1)C(F)(F)F (stereo not given),98.8%
CCOC(=O)N1CCN(C(=O)c2cnc3n(c2=O)CCS3)CC1,94.7%
